From PubChem BioAssay
TRPML1 inh: qHTS for Inhibitors of the Human Mucolipin Transient Receptor Potential 1 (TRPML1). 390,000 tested, 0.02% active. TRPML1-inducible cells, Ca2+ dye fluorescence, FDSS; active compounds read low; inhibition of EC80 agonist-evoked calcium signal. activity change, negative = inhibition, % (concentration not given with the values). AID 624415, 2012. Mucolipin-1 (Homo sapiens), Q9GZU1; in the data active means activity change below about -50%; inconclusive means about -30% to -50%; inactive means above about -30%;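 also: stimulus is agonist 54-4 at its EC80 concentration; % is scaled to controls: 0 for no effect and ±100 for the full control effect; the text of the record puts the active cut at -80%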
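Tet-induced TRPML1-DL cells loaded with Ca8 no-wash calcium dye were read kinetically on FDSS. Compound addition was followed by EC80 agonist 54-4 (4 uM final); inhibition was read over 110 s.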
PINK1 expr mod: A Quantitative High throughput Screen to Identify Chemical Modulators of PINK1 Expression. PINK1 immunofluorescence, high-content cytometry, 24 h. Potency, µM (doses to about 76.6 µM), for inactives: top-dose activation (PINK1 increase), usual class: activators. 410,000 tested, 0.2% active. AID 624263, 2012; active = well fitted activation curve with a large enough effect; inconclusive = small, poorly fitted or top-dose-only effect; inactive = flat fitted curve, though single readings scatter; cell line not stated here;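 also: potency is read from the fitted curve at half-maximal effect; % of control where 0% means no effect; nearly all actives have a fitted effect of over 65% in size; a mitochondrial uncoupler was the plate control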
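Fluorescence from anti-PINK1 antibody, together with nuclear and cell stains, was scanned on a laser-scanning cytometer. Before staining, stable-line cells were incubated 24 hours with compounds at 5 concentrations; primary antibody 12 h at 10 degrees C.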
ClpP mod: qHTS Assay for Activators of ClpP; ATP-dependent Clp protease proteolytic subunit (Bacillus subtilis (strain 168)), P80244; purified B. subtilis ClpP, FRET peptide cleavage, 20 min; Potency, µM (doses to about 57.5 µM), for inactives: at the highest dose activity change, negative = active; 340,000 tested, 1.9% active; active = well fitted falling curve with a large enough effect; inconclusive = small, poorly fitted or top-dose-only effect; inactive = no such curve, though single readings can be large or run the other way; also: potency is read from the fitted curve at half-maximal effect; the source files actives as falling curves though it sought activators and does not explain the sign; nearly all actives have a fitted effect of over 65% in size; many hits overshoot -100%
Target sequence (P80244 whole entry, looked up): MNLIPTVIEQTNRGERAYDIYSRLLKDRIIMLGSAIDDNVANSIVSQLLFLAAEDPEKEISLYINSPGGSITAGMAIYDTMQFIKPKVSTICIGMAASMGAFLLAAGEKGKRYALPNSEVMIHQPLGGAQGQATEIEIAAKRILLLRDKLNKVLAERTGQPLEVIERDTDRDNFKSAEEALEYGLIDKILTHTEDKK
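FRET quenching reversal measured ClpP activation: 10 microg/mL B. subtilis ClpP at pH 8 with the FRET-FV decapeptide, read at 430 nm after 320 nm excitation. The 20-min minus 0-min signal was scaled between DMSO/no-enzyme wells and ADEP (5.8 microM final).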
TRPML1 ag: qHTS for Agonists of the Human Mucolipin Transient Receptor Potential 1 (TRPML1) | TRPML1-expressing cells, Ca2+ dye fluorescence, FDSS; host cell line not named in the record; reference of the full effect not given here | 410,000 tested, 0.12% active | activation, % (concentration not given with the values) | Mucolipin-1 (Homo sapiens), Q9GZU1; in the data active = activation above about 50%; inconclusive = about 30% to 50%; inactive = below about 30%; also: 0% is about no effect; the text of the record puts the active cut at 80%
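TRPML1-DL cells, Tet-induced overnight (~16 h, 37 degrees C), loaded 45-90 min at room temperature with Ca8 no-wash calcium dye plus quencher. FDSS fluorescence: 10 s baseline, compound pin-transfer, 110 s agonist read, then EC80 54-4 (4uM final) and 110 s antagonist read.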
TRPV1 potentiator: HTS Assay for Compounds that Act as Potentiators of the Vanilloid Receptor 1; Transient receptor potential cation channel subfamily V member 1 (Homo sapiens), Q8NER1; TRPV1-expressing cells, Fluo-8 calcium influx, capsaicin EC20 potentiation; host cell line not named in the record; control for the full effect not named in the record; potentiation, % at 8.33 µM; 320,000 tested, 0.02% active; active means potentiation above 80%; inconclusive means 30% to 80%; inactive means below 30%; also: 0% is about no effect
Target sequence (Q8NER1 whole entry, looked up): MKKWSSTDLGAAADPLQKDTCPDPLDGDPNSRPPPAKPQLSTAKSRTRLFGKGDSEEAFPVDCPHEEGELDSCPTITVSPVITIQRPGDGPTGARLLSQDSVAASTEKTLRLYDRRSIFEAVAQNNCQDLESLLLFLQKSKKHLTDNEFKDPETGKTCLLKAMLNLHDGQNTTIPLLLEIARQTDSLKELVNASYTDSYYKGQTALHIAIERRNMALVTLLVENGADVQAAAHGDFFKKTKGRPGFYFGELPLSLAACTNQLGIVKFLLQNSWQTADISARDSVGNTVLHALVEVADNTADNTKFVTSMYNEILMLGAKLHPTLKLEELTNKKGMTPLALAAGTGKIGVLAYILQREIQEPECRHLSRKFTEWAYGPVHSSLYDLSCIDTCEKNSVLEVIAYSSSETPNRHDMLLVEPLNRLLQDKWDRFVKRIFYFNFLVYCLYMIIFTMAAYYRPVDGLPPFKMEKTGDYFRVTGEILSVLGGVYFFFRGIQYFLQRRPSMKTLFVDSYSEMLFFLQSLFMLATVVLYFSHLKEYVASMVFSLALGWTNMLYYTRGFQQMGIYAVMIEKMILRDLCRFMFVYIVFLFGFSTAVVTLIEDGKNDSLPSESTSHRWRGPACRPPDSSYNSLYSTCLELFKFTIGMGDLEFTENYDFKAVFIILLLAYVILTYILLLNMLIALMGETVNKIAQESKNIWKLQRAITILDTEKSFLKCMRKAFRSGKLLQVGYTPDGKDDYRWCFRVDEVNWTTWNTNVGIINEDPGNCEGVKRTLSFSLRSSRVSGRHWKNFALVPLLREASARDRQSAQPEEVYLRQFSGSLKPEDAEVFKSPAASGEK
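TRPV1-expressing cells were cultured overnight at 35.5C and loaded with Fluo-8 calcium dye for 40 to 90 min at room temperature. After a 10 s baseline, compound was added and calcium influx was read kinetically for 3 min (ex 480/em 520 nm).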
Sfp inh: qHTS Assay for Inhibitors of Bacillus subtilis Sfp phosphopantetheinyl transferase (PPTase) | 4'-phosphopantetheinyl transferase ffp (Bacillus subtilis), Q9F4F7 | Biochemical Sfp PPTase activity, qHTS | Potency, µM, for inactives: max response, negative = inhibition, actives largely listed as inhibitors | 310,000 tested, 3.5% active; active = well fitted inhibition curve with a large enough effect; inconclusive = small, poorly fitted or top-dose-only effect, or another doubt; inactive = no such curve, though single readings can be large or run the other way;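 also: the enzyme is Sfp with the accession as filed and its product quenches rhodamine fluorescence; potency is read from the fitted curve at half-maximal effect; 0% = enzyme reaction without inhibitor and -100% = no enzyme wells; top concentration of the series not given in the record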
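After 15 min at room temperature with compound, 15 nM Sfp received 5 uM rhodamine-CoA plus 12.5 uM BHQ-2-ybbR (50 mM Hepes pH 7.6, 10 mM MgCl2). Rate came from the fluorescence difference over 30 min, ex 525/em 598 nm.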
Menin-MLL FL inh: qHTS Assay for Inhibitors Targeting the Menin-MLL Interaction in MLL Related Leukemias: Competition With Fluorescein Labeled MLL-derived Peptide | Fluorescence polarization, fluorescein-MLL peptide displacement from menin | FP activity change, % at 61.4 µM | 290,000 tested, under 10 active; inconclusive = falling polarisation curve, or a change in total fluorescence; inactive = total fluorescence flat and polarisation flat or rising; no compound was filed as active; the % refers to the polarisation; negative = inhibition;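 also: % of control where 0% means no effect; inhibitors lower the polarisation; unlabelled MLL peptide was the positive control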
Numbers without * were called inactive; ? = inconclusive; . = not tested or not shown; [ ] = another dose, or the depositor's remark.

SMILES	TRPML1 inh	PINK1 expr mod	ClpP mod	TRPML1 ag	TRPV1 potentiator	Sfp inh	Menin-MLL FL inh
CCCS(=O)(=O)c1c(S(=O)(=O)CCC)c2cnccn2c1C(=O)c1ccc(CC)cc1	-6.6	3.0%	0.3%	-0.1	2.1	10.3%	12.1
COCc1ccc([C@@H]2C[C@H]3CN(Cc4ccccc4C)C(=O)[C@]34CCCN24)o1	0.7	0.4%	-1.6%	-0.2	6.4	0.6%	-1.3
COc1cc(C2c3[nH]c4ccccc4c3C[C@H]3C(=O)N(CCO)CC(=O)N23)cc(OC)c1OC (some centres not stated)	26.0	?	-2.3%	-1.6	9.3	13.8%	2.0
COc1ccc(NC(=O)C2(C)CCN2CCc2ccccc2)cc1OC (configuration not stated)	.	-0.1%	-0.3%	-1.2	.	.	.
Cc1cccc(-n2ncc3c(N4CCc5ccccc54)ncnc32)c1	.	.	.	.	10.2	9.8%	0.7
CCOC(=O)c1c(NC(=O)CSc2ncnc3ccccc23)sc(C)c1C	6.6	5.1%	0.7%	0.2	-5.3	?	6.5
O=C(Cc1cccs1)N1CCCC(c2nc3c(nnn3Cc3ccc(F)cc3)c(=O)[nH]2)C1 (configuration not stated)	1.6	?	-0.7%	-0.4	-10.7	-5.4%	2.4
Cc1cc(C)c2c(=O)cc(C(=O)Nc3sc4c(c3C(=O)NCc3cccnc3)CCCC4)oc2c1	2.5	5.8%	-0.3%	4.6	.	.	.
CC1CCCCC1NC(=O)CCNS(=O)(=O)c1ccc(Cl)cc1 (configuration not stated)	-6.7	0.2%	0.1%	-1.0	-3.2	10.6%	1.3
COc1ccc(OC)c(C(c2nnnn2C2CCCC2)N2CCN(c3ccccc3)CC2)c1 (configuration not stated)	-9.8	3.6%	-18.9%	22.2	-1.0	5.8%	0.8
CCN1C(=O)CC(N2CCN(C(c3ccccc3)c3ccccc3)CC2)C1=O (configuration not stated)	-10.9	1.9%	-0.5%	2.7	2.8	8.0%	2.4
O=C1OC(c2ccccc2)(c2cc(Br)ccc2O)c2ccccc21 (configuration not stated)	35.0	-1.8%	.	8.3	.	.	.
CC(C)C[C@H](NC(=O)c1nc[nH]c1C(=O)N[C@@H](CC(C)C)C(=O)OC(C)(C)C)C(=O)OC(C)(C)C	21.2	?	-3.1%	1.0	7.3	26.3%	3.4
COc1ccc(NC(=O)CSc2nnc(CNC(=O)COc3ccc(Cl)cc3)o2)c(OC)c1	21.7	-0.4%	-0.4%	0.3	-10.7	27.8%	1.7
O=c1ccc2cc(S(=O)(=O)Nc3ccc(F)cc3)ccc2o1	-2.4	-1.7%	-0.1%	-0.7	8.5	4.1%	2.9
CC(=O)c1ccc(OCC(O)CN2CCN(c3ccccn3)CC2)cc1 (configuration not stated)	-10.1	2.0%	-1.4%	-0.5	.	4.9%	2.4
C=CCn1c2c(c3ccccc31)CCC2	.	5.2%	?	-0.8	.	.	.
Cc1ccc(S(=O)(=O)N(C)CC(=O)NCC(c2ccc(F)cc2)N2CCOCC2)cc1 (configuration not stated)	-2.9	3.1%	-0.2%	0.0	-1.8	.	.
O=C(Nc1ccc(N2CCOCC2)cc1)c1cnsn1	-1.5	2.0%	-1.4%	-0.2	6.2	10.2%	0.5
COc1ccc(CN(C(=O)CCC(=O)Nc2cc(C)on2)C(C(=O)NC(C)(C)C)c2cccc(OC)c2OC)cc1 (configuration not stated)	-1.4	1.6%	.	0.8	-5.0	20.5%	-1.6
O=C1Cc2ccccc2Sc2c(OCCN3CCCCC3)cccc21	-8.6	0.5%	-6.4%	4.0	-15.8	-5.0%	.
CC(/C=N/NC(=O)CSc1nc(C)cc(C)n1)=C\c1ccccc1	14.4	-1.1%	1.1%	-0.1	2.0	-13.4%	11.5
CCN(CC)CCN(C(=O)c1ccc2c(c1)CCCC2)c1nc2ccc(OC)cc2s1	-9.4	?	-6.3%	-0.3	-1.7	79.4µM*	-1.6
Cc1nn2c(-c3ccco3)ccnc2c1-c1ccc(F)cc1	-2.7	0.0%	-0.3%	-0.2	.	.	.
COC(=O)c1cnc(N2CCOCC2)nc1C(F)(F)F	-5.3	-0.7%	-0.7%	-0.6	2.7	5.4%	-0.3
CC(=O)N=c1sccn1CC(O)c1ccccc1 (configuration not stated)	-12.4	0.3%	0.9%	0.2	-10.0	3.7%	1.8
Cc1ccc(S(=O)(=O)N(C)c2ccc(C)c([N+](=O)[O-])c2)cc1	29.4	-0.2%	.	1.8	80.1*	1.8%	-1.6
COc1ccc(Br)cc1CN(C)C(=O)Cc1ccc(OC)c(S(=O)(=O)N2CCOCC2)c1	3.6	1.0%	1.8%	-1.3	23.1	.	.
c1ccc2c(-c3nc(-c4ccncc4)no3)cccc2c1	25.9	-5.9%[38.3 µM]	31.6µM*	1.5	18.8	10µM*	2.3
CC(C)CCn1c(C(C)O)nc2ccccc21 (configuration not stated)	35.5	1.6%	0.7%	-1.0	2.2	12.0%	-2.5
CC1CCN(C(=O)Cn2c(SCC(=O)Nc3nccs3)nc3ccccc32)CC1	-7.1	-1.2%[38.3 µM]	0.7%	2.0	16.4	0.9%	-1.2
COc1cc(/C=C/C(=O)OCC(=O)c2ccc[nH]2)ccc1O	2.3	-0.2%	-28.9%	-0.1	.	.	.
FC(F)(F)c1ccccc1Cc1c(-c2ccco2)nc2ccc(Br)cn12	.	2.7%	-9.0%	-0.3	.	.	.
O=S(=O)(c1ccc(F)c(F)c1)N1CCCCCCC1	-2.7	0.0%	-1.1%	-0.8	.	.	.
COc1cc(OC)cc(C(=O)NNC(=O)c2ccccn2)c1	2.0	-1.8%	.	2.8	3.3	17.9%	0.3
COCCNC(=S)N/N=C/c1ccc(OCc2ccc(C(=O)OC)cc2)cc1	-4.9	3.5%	.	-0.3	0.1	3.5%	1.4
CCOc1ccccc1NC(=O)Nc1ccon1	18.5	0.0%	0.5%	-0.2	10.0	1.9%	2.5
COc1ccc(-c2cc3c(=O)n(CC(=O)NCc4ccccc4F)ncn3n2)cc1	-6.4	11.7%	-7.7%	-0.4	9.7	1.5%	2.0
CCN(CC)C(=O)c1c([N+](=O)[O-])c(C(C)(C)C)nn1C	4.5	-0.3%	25.1µM*	-0.7	-12.7	6.8%	.
Cc1ccccc1-c1nc2cc(NC(=O)Cc3ccc(Cl)cc3)ccc2o1	-4.7	0.8%	4.2%	0.6	.	.	.

Laid out differently: entries from further up.
| compound | TRPML1 inh | PINK1 expr mod | ClpP mod | TRPML1 ag | TRPV1 potentiator | Sfp inh | Menin-MLL FL inh |
| --- | --- | --- | --- | --- | --- | --- | --- |
| Cc1ccccc1-c1nc2cc(NC(=O)Cc3ccc(Cl)cc3)ccc2o1 | -4.7 | 0.8% | 4.2% | 0.6 | . | . | . |
| COc1cc(/C=C/C(=O)OCC(=O)c2ccc[nH]2)ccc1O | 2.3 | -0.2% | -28.9% | -0.1 | . | . | . |

(continued)
SMILES	TRPML1 inh	PINK1 expr mod	ClpP mod	TRPML1 ag	TRPV1 potentiator	Sfp inh	Menin-MLL FL inh
C[C@H](CO)N1C[C@H](C)[C@H](CN(C)S(=O)(=O)c2ccc(F)cc2)OCc2cnnn2CCCC1=O	-13.4	-1.0%	-0.6%	-0.8	.	.	.
Cc1cc(C)c(C)c(S(=O)(=O)NCC(=O)NCc2ccco2)c1C	3.4	-1.1%	-1.1%	1.4	0.5	4.3%	4.7
O=C(NCC1CCCN(C(=O)c2cscn2)C1)c1ccc(-c2ccccc2)cc1 (configuration not stated)	-9.5	3.7%	.	-0.1	-1.2	17.4%	-2.3
NS(=O)(=O)c1ccc(CCNC(=O)CSc2nc3ccsc3c(=O)n2CCCCCC(=O)O)cc1	4.0	0.3%	.	1.0	-9.1	12.5%	-1.8
CC(C)c1ccc(S(=O)(=O)N2CCN(C(=O)CCNC(=O)Nc3ccccc3)CC2)cc1	5.1	1.6%	0.4%	1.0	2.3	.	.
COc1ccccc1N1Cc2ccccc2C1	-20.9	2.8%	-2.3%	-0.6	-5.6	?	13.9
Cc1ccc2[nH]c(=O)c(CN(Cc3cccnc3)Cc3nnnn3CCN3CCOCC3)cc2c1	5.5	-1.7%	-27.8%	-0.5	?	8.5%	1.0
O=C(N/N=C/c1ccc(Br)cc1)c1ccc(NC(=O)c2ccccc2)cc1	5.4	-0.1%	-0.9%	-0.6	.	.	.
Cc1ccc(-c2ccc(=O)n(CC(=O)N3CCN(c4cc(Cl)ccc4C)CC3)n2)cc1	22.3	-2.6%[38.3 µM]	-7.1%	1.6	18.3	-10.4%	-0.7
Cc1ccc(CSc2[nH]c(=O)ncc2C)cc1	-14.3	0.5%	0.5%	0.0	3.8	-2.2%	-0.2
O=C(NCC1CCCO1)c1c[nH]c2ccc(S(=O)(=O)Nc3ccc(F)cc3F)cc2c1=O (configuration not stated)	8.5	3.0%	-23.7%	0.7	.	.	.
CCC(=O)Nc1ccc(N/C(N)=N/c2nc(C)cc(C)n2)cc1	-8.5	0.7%	-0.2%	-0.2	.	0.4%	-0.8
CC(C)C(NS(=O)(=O)/C=C/c1ccccc1)C(=O)NCc1ccc(F)cc1 (configuration not stated)	13.1	5.6%	.	2.1	0.7	-9.1%	5.1
Cc1nc(N)sc1-c1csc(NCc2ccccc2)n1	-0.8	3.9%	-2.2%	0.2	8.0	39.8µM*	?
O=C(COC(=O)c1ccccc1O)Nc1ccc2ccccc2c1	-11.2	1.6%	.	1.5	.	.	.
COC(=O)c1ccc(CSc2nc3ccccc3c(=O)n2-c2cccc(OC)c2)o1	1.2	-1.2%[38.3 µM]	-3.5%	0.6	0.7	-11.0%	6.6
CCCCOC(=O)Cn1c(=O)c2c(nc(Br)n2Cc2ccccc2)n(C)c1=O	-16.7	1.0%	-2.6%	2.6	-12.0	-0.4%	3.7
CC(C(=O)O)n1c2ccccc2c2cn[nH]c(=O)c21 (configuration not stated)	-7.1	-1.9%	4.2%	-0.1	5.4	-0.7%	-1.4

Compounds were not picked by outcome. About 4.4% of those tested had a hit in this group.
